Compound activity from PubChem.
VACV mCherry inh: qHTS for Stage-Specific Inhibitors of Vaccinia Orthopoxvirus: mCherry Reporter Primary qHTS; Vaccinia virus mCherry reporter infection, fluorescence; about a quarter of the inactives have no number; Potency, µM (highest dose often 36.5 µM), without a hit: at the highest dose activity change, negative = inhibition, actives largely listed as inhibitors; 0.63% of 310,000 active; active = well fitted inhibition curve with a large enough effect; inconclusive = small, poorly fitted or top-dose-only effect; inactive = no such curve, though single readings can be large or run the other way; tested in A549 cells; also: nearly all actives have a fitted effect of over 35% in size; inactives centre near -10
Vaccinia Venus: qHTS for Stage-Specific Inhibitors of Vaccinia Orthopoxvirus: Venus Reporter Primary qHTS; Vaccinia virus Venus reporter expression, fluorescence; Potency, µM (titrated, usually from 36.5 µM), for inactives: top-dose activity change, negative = inhibition, actives largely listed as inhibitors; 0.46% of 330,000 active; active means well fitted inhibition curve with a large enough effect; inconclusive means small, poorly fitted or top-dose-only effect; inactive means no such curve, though single readings can be large or run the other way; tested in A549 cells; also: nearly all actives have a fitted effect of over 30% in size; inactives centre near -10
* = called active by the depositor; i = inactive; ? = inconclusive; / = no result given; & = joins results of further samples; [ ] = another dose, or the depositor's remark. % is scaled to controls: 0 for no effect and ±100 for the full control effect; potency is read from the fitted curve at half-maximal effect.

structure	VACV mCherry inh	Vaccinia Venus
Cc1ccccc1N1CCN(Cc2nc(Cc3ccccc3F)no2)CC1	?	-14%
O=C(COc1ccccc1-c1nc(-c2ccccc2)no1)Nc1ccccc1[N+](=O)[O-]	-12%	-4%
COc1cc(NS(=O)(=O)c2ccc3[nH]c(=O)[nH]c3c2)cc(OC)c1	-3%	-3%
O=c1[nH]c(=O)n(CCCc2ccccc2)cc1-c1ccccc1	i	-10%
COc1ccc(-c2cn3c(n2)sc2cc(C(=O)NCCC4=CCCCC4)ccc23)cc1	-7%	-2%
CC1CCN(S(=O)(=O)c2ccc3c(c2)N(CC(=O)NCc2ccccc2Cl)C(=O)CS3)CC1	-19%	-10%
Nn1c(SCC(=O)N2CCOCC2)nnc1-c1ccc(Cl)cc1Cl	-19%	-15%
O=C(CSc1cn(CCNC(=O)c2cccs2)c2ccccc12)NC1CCCCC1	i	-12%
OC(COc1ccc(Cl)cc1)CN1CCN(c2cccc(Cl)c2)CC1 (centres undefined)	-16%	-21%
CN(CC(=O)Nc1cccc(F)c1)S(=O)(=O)c1ccc2c(c1)n(C)c(=O)c(=O)n2C	-9%	-9%
CCCc1cc(=O)oc2cc(C)cc(OC(C)C(=O)N[C@@H](Cc3c[nH]c4ccccc34)C(=O)O)c12 (some centres undefined)	-1%	-8%
CCCN(CCC)C(=O)CSc1ncccc1C(=O)O	i	-3%

(continued)
structure	VACV mCherry inh	Vaccinia Venus
COc1cccc(N2CC(NC(=O)c3ccc(S(=O)(=O)N4CCOCC4)cc3)CC2=O)c1 (centres undefined)	-7%[7.34 µM]	-9%[7.34 µM]
CN(CC(=O)NC1CCCc2ccccc21)S(=O)(=O)c1ccc2c(c1)c(=O)n(C)c(=O)n2C (centres undefined)	i	-17%
Cc1cccc(C)c1NC(=O)CN1CCN(C(=O)CNC(=O)Cc2cccc3ccccc23)CC1	i	-21%
CC(=O)c1c(N2CCN(c3ccc(F)cc3)CC2)nc(=S)n(-c2ccccc2)c1C	-7%	0%
O=C(Nc1cccc(C(=O)O)c1)/C(=C\c1ccccc1)NC(=O)c1ccc(Br)o1	i	-13%
CCCOc1ccc(C(=O)C(CN2CCCC2)c2ccccc2)cc1 (centres undefined)	?	10µM*
Cc1ccc(-n2[nH]c(C)c(C=Nc3ccc(S(=O)(=O)Nc4nc(C)cc(C)n4)cc3)c2=O)c(C)c1	-3%	2%
C/C(=N\NC(=S)Nc1cc(S(=O)(=O)N2CCOCC2)ccc1Cl)c1ccc(N2CCOCC2)cc1	-9%[7.34 µM]	-1%[7.34 µM]
Cc1ccc(NC(=O)Cn2c(=O)oc3cc(S(=O)(=O)N4CCCCC4)ccc32)c(C)c1	-19%	-3%
Cc1cnc(NS(=O)(=O)c2ccc(Cl)cc2)c(Br)c1	i	-5%
COc1nc(N)nc(CC(=O)C2CC2)n1	/	19%
COC(=O)c1sc2cccc(F)c2c1S(=O)(=O)Nc1ccc(C)cc1Cl	-10%	-11%

Other entries:
structure	VACV mCherry inh	Vaccinia Venus
O=C(NCc1ccccc1Cl)c1ccccc1NC(=O)c1nsc2ccccc12	-12%[7.34 µM]	-7%[7.34 µM]
CC(C1CC1)N(C(=O)NC1CCS(=O)(=O)C1)c1ccccc1 (centres undefined)	/	1%
Cc1ccc(S(=O)(=O)N/N=C/c2cccn2-c2ccc(Cl)cc2)cc1	/	-16%
O=C(NNC(=O)c1ccccc1[N+](=O)[O-])c1ccc(NC(=O)c2ccccc2)cc1	-10%	-9%
O=C(O)CCC(=O)Nc1ccc(Br)cn1	/	-1%
Cc1cc(-c2nnc(SCC(=O)Nc3ccccc3C(F)(F)F)n2N)n[nH]1	i[7.34 µM]	0%[7.34 µM]
Cc1ccc(C(=O)N/C(=C\c2sccc2C)C(=O)NCCCN2CCOCC2)cc1	?	-2%
CCOc1ccc(-c2cc(C(=O)Nc3cccc(C(F)(F)F)c3)[nH]n2)c(C)c1	-7%	-6%
Cc1ccc(NS(=O)(=O)c2ccc(-c3ccc(=O)[nH]n3)o2)cc1	-17%	-7%
Cc1onc(C(=O)N2C(C)CCCC2C)c1[N+](=O)[O-] (centres undefined)	i	-8%
CCOc1ccc2ccccc2c1/C=N/NC(=O)c1cc(C)[nH]n1	-18%	4%
O=C(O)CSc1nc(-c2ccc(Cl)cc2)nc2c1oc1ccccc12	-20%	-5%

Later entries
structure	VACV mCherry inh	Vaccinia Venus
O=C(Cn1cc(S(=O)(=O)Cc2cccc(F)c2)c2ccccc21)N1CCOCC1	-8%	-12%
CC(C)c1ccc(CC(C)C2C3=C(CCCC3=O)OC3=C2C(=O)CCC3)cc1 (centres undefined)	/	-53%
Nc1nnc(CSc2ccc(Cl)cc2)s1	/	-17%
CN1CCN(CC(=O)NC23CC4CC(CC(C4)C2)C3)CC1	i	8%
Cc1ccc(Oc2nc3ccccc3n3c(C)nnc23)c(C)c1	-6%	-6%
Cc1cc(C)c(NC(=O)COCc2cc(-c3cccs3)on2)c(C)c1	i	-14%
COc1ccc(-n2c(=O)c3c4c(sc3n(Cc3ccccc3C)c2=O)CCCC4)c(OC)c1	-8%	-16%
Cc1cnc(CN2CCCC(C(=O)c3ccc4c5c(cccc35)CC4)C2)[nH]1 (centres undefined)	-12%	-8%
COc1cccc(-n2c(Cc3cc(=O)[nH]c(=O)[nH]3)nnc2SC(C)C)c1	2%	7%
O=C(Nc1ccc(OC(F)(F)F)cc1)c1cc(S(=O)(=O)N2CCCCC2)ccc1N1CCOCC1	i	-21%
CCOC(=O)N1CCN(C(=O)c2ccc(OC)c(OC)c2)CC1	-23%	-12%
O=C(CSc1nc2c(sc3ccccc32)c(=O)n1CCCN1CCCC1)NCc1ccccc1	-24%	-40%

The list goes on.
structure	VACV mCherry inh	Vaccinia Venus
CCCCn1c(N)c(N(CCC(C)C)C(=O)CSc2nc3ccccc3n2C)c(=O)[nH]c1=O	i	-19%
C[C@]1(C(=O)NCCCNc2ncc(C(F)(F)F)cc2Cl)C=C[C@@H](Cc2ccccc2)N1C(=O)c1ccccc1	-19%	?
O=C(Nc1ccc2c(c1)OCO2)C1CC(=O)N(c2ccc3c(c2)OCCO3)C1 (centres undefined)	3%	-5%
CC(=O)Nc1nc2ccccc2n1CCN(C)C	/	-6%
CCOC(=O)C1CCCN(C(=O)COc2ccccc2O)C1 (centres undefined)	-4%	6%
C=C1c2cccc(OC)c2O[C@H](C(=O)OCC)[C@@H]1CCCCCC	-14%&-22%	-23%&-10%
COc1ccc(OC)c(C(=O)CSc2nnc(C3CC3)n2C2CC2)c1	-18%	-11%
Cn1cccc1C(=O)NC(=O)COC(=O)CC12CC3CC(CC(Br)(C3)C1)C2	/	-22%
CCOc1ccc(N/C(SC)=C(/C#N)C(N)=O)cc1	-24%	-11%
O=C(CCNC(=O)c1ccccc1Cl)NCC1COc2ccccc2O1 (centres undefined)	-16%	1%
O=C(CNC(=O)c1ccc(C(F)(F)F)cc1)NC1CC1	-1%	-4%
CN(C)Cc1c(C(=O)N/N=C/c2ccoc2)nnn1-c1nonc1N	i	-12%

Later entries
structure	VACV mCherry inh	Vaccinia Venus
C=CCn1cc(-c2ccccc2)cc(C#N)c1=O	/	-20%
O=C(CCC(=O)N1CCOCC1)NCCc1ccc(Cl)cc1Cl	i	-15%
Cc1nnc(N2C(=O)c3oc4ccccc4c(=O)c3C2c2ccc(C(C)(C)C)cc2)s1 (centres undefined)	-1%	-21%
COc1ccc(-c2ccc(CCC(=O)O)n2CC(=O)Nc2cccc(Cl)c2C)cc1	-14%	-10%
COC(=O)c1ccc(NC(=O)c2ccccc2NS(C)(=O)=O)cc1	-25%	-17%
COc1ccc(-n2nc(C(=O)N3CCN(c4ccc(F)cc4)CC3)c3ccccc3c2=O)c(OC)c1	-25%	-12%
COC(=O)C1=CO[C@@H](O[C@@H]2O[C@H](CO)[C@@H](O)[C@H](O)[C@H]2O)C2C(CO)=CCC12 (some centres undefined)	i	-4%
Cc1cc(C)c(S(=O)(=O)N2C=CC(C(F)(F)F)=NCC2)c(C)c1	i	-15%
Cc1ccc(NC(=S)N(CCC(C)C)C(C)c2ccncc2)c(Cl)c1 (centres undefined)	?	-13%
CC(C)Cn1c(-c2cc(Br)ccc2F)nc2c1c(=O)[nH]c(=O)n2CC(C)C	-25%	-13%
O=C(Cc1cccc2ccccc12)N/N=C/c1ccc2cccc(O)c2n1	?	-21%
COc1ccc2[nH]c(C)c(CCNC(=S)Nc3cc(C)ccc3C)c2c1	-16%	-14%

Quoted from the listing.
COc1ccc(-n2nc(C(=O)N3CCN(c4ccc(F)cc4)CC3)c3ccccc3c2=O)c(OC)c1 in VACV mCherry inh → -25%
COC(=O)C1=CO[C@@H](O[C@@H]2O[C@H](CO)[C@@H](O)[C@H](O)[C@H]2O)C2C(CO)=CCC12 (some centres undefined) in Vaccinia Venus → -4%
COc1ccc2[nH]c(C)c(CCNC(=S)Nc3cc(C)ccc3C)c2c1 in Vaccinia Venus → -14%
C=CCn1cc(-c2ccccc2)cc(C#N)c1=O in Vaccinia Venus → -20%
O=C(CCC(=O)N1CCOCC1)NCCc1ccc(Cl)cc1Cl in Vaccinia Venus → -15%

Additional results follow.
The line under a structure holds: VACV mCherry inh, Vaccinia Venus
- O=S(=O)(Nc1nc2ccccc2s1)c1ccc(Cl)s1
 : -1%, -14%
- O=C(CSc1nc(=O)[nH]c2c1CCCC2)NCc1ccccc1Cl
 : -10%[7.34 µM], -11%[7.34 µM]
- CCOc1ccc(N(C(C)=O)c2nc(C)cc(C)c2C#N)cc1
 : /, 0%
- CCOc1ncccc1C(=O)OCC(=O)Nc1cc(S(=O)(=O)N2CCOCC2)ccc1C
 : -6%, -12%
- CCOC(=O)c1sc2nc(C)nc(NCc3ccc(F)cc3)c2c1C
 : -22%, -18%
- COc1ccc(CCNC(=O)Nc2cccc([N+](=O)[O-])c2)cc1
 : i, -12%
- CCOC(=O)C1CCN(c2c(NC3CCCc4ccccc43)c(=O)c2=O)CC1 (centres undefined)
 : -14%, -11%
- COC(=O)c1ccc(COc2ccc3c(C)c(C)c(=O)oc3c2C)o1
 : -17%, -4%
- CCN1CCCC(Sc2nc3c([nH]2)c(=S)n(C)c(=O)n3C)C1 (centres undefined)
 : i, -3%
- COc1ccc(-c2c(N)nnc3c2[nH]c2ccccc23)cc1OC
 : ?, -22%
- O=C1/C(=C/c2ccccc2)N=C(N2CCOCC2)N1c1cccc(Cl)c1
 : i, -8%
- Cc1ccc(S(=O)(=O)N2CCC(C)CC2)c([N+](=O)[O-])c1
 : -14%, -9%
- CCc1ccc(NC(=O)c2cccc(NC3=NC4CS(=O)(=O)CC4S3)c2)cc1 (centres undefined)
 : -5%, -24%
- CCOC(=O)N1CCN(C(=O)c2ccccc2NS(=O)(=O)c2ccc(C)cc2)CC1
 : -14%, -5%
- COc1cc(C2c3c(oc4ccccc4c3=O)C(=O)N2Cc2ccncc2)ccc1O (centres undefined)
 : -11%, -7%
- CC12CC3CC(C)(C1)CC(CN1CCOCC1)(C3)C2
 : -15%, -11%
- CCc1ccc(OCC(=O)Nc2cc(-c3ccc(C)cc3)no2)cc1
 : -11%, -8%
- CC(=O)Nc1ccc(NC(=O)CSc2nc(=O)n(Cc3ccncc3)c3c2CCC3)cc1
 : i, -3%
- CNS(=O)(=O)c1cccc(C(=O)OCC(=O)c2ccc3[nH]c(=O)[nH]c3c2)c1
 : -13%, -8%
- Nc1nc(NCCOCCO)nc(NCc2ccccc2)c1[N+](=O)[O-]
 : -9%, -11%
- O=[N+]([O-])c1ccc(Oc2cccc(Br)c2)c2ccncc12
 : -6%, ?
- CC(=O)c1ccc(N2CCN(S(=O)(=O)c3ccc(-c4cc(C(F)(F)F)on4)s3)CC2)cc1
 : -14%, -13%
- CCC(C)n1c(=N)c(S(=O)(=O)c2ccc(C)cc2)cc2c(=O)n3cc(C)ccc3nc21 (centres undefined)
 : -11%, -3%
- COC(=O)c1ccc2nc(-c3cccc(Cl)c3)c(Cc3cccc(Cl)c3)n2c1
 : 11%, 12%
- Cc1cccn2c(=O)c3cc(C(=O)NC4CCCCC4)sc3nc12
 : -12%, -13%
- O=c1cc(-c2ccccc2)ss1
 : -26%, -12%
- Cc1ccc(NC(=O)N2CCCC2C(=O)NCc2ccc3c(c2)OCO3)cc1 (centres undefined)
 : i, 2%
- CCOc1cc(/C=N/NC(=O)Cc2ccc(C(F)(F)F)cc2[N+](=O)[O-])c(Br)cc1OC
 : -8%, -5%
- COC(=O)CSc1nc2sccc2c(=O)n1-c1ccccc1
 : -13%, -10%
- CCOc1cc(N2CCOCC2)c(OCC)cc1NC(=O)COC(=O)COc1ccc(C#N)cc1
 : -11%, -13%

Looked up by structure from the list above (2):
The line under a structure holds: VACV mCherry inh, Vaccinia Venus
- O=[N+]([O-])c1ccc(Oc2cccc(Br)c2)c2ccncc12
 : -6%, ?
- CCc1ccc(NC(=O)c2cccc(NC3=NC4CS(=O)(=O)CC4S3)c2)cc1 (centres undefined)
 : -5%, -24%

The results go on:
The line under a structure holds: VACV mCherry inh, Vaccinia Venus
- O=CN(CCN(C=O)CN1CCCCC1)CN1CCCCC1
 : /, -9%
- O=C(COC(=O)c1ccccc1-c1nc2ccccc2s1)NC1CCS(=O)(=O)C1 (centres undefined)
 : -12%, -7%
- Cc1ccc(NC(=S)NC(=O)Cc2ccccc2)c(O)c1
 : -11%, -16%
- COc1ccc(NCc2n[nH]nc2-c2ccccc2)cc1Cl
 : -1%, -14%
- Cc1cc(=O)n2[nH]cc(-c3ccccc3)c2n1
 : -27%, -24%
- CCCN(CCC)CCCNC(=S)Nc1ccc2nc3n(c(=O)c2c1)CCCCC3
 : 14%, -22%
- O=C(c1ccc(CNc2c(N3CCCC3)c(=O)c2=O)cc1)N1CCN(C2CCCCC2)CC1
 : 8%, -3%
- O=C(O)c1ccc(Sc2nnnn2-c2ccccc2)c([N+](=O)[O-])c1
 : -4%, -4%
